AmpC inh no det – Promiscuous and Specific Inhibitors of AmpC Beta-Lactamase (assay without detergent); AID 585, 2007; AmpC nitrocefin hydrolysis, absorbance 480 nm, no detergent; potencies from a single point are estimates; Potency, µM (top dose mostly 28.7 µM), for the others: top-dose activity change, negative = inhibition; P00811; hit rate 1.8% among 71,000; active = falling curve, for most hits resting on a single point; inconclusive = weak or doubtful change; inactive = flat or rising curve; also: % of control where 0% means no effect; about half of the hits show no inhibition at the top dose; a quarter of the inactives give rising signals
Target sequence (P00811 whole entry, looked up): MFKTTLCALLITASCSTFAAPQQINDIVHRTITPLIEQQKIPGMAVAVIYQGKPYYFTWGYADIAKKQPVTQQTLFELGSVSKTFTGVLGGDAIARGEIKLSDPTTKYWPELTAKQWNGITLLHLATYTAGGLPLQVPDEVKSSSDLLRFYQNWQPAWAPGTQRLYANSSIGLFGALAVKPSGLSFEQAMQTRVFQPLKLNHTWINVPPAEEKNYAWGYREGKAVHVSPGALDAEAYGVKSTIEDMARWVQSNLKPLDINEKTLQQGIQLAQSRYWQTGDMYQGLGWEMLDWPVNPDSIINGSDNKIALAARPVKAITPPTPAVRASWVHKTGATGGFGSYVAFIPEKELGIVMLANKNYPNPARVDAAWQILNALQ
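AmpC in 20 mM phosphate buffer pH 7.0 was preincubated 15 min at room temperature with compounds. Nitrocefin (800 uM stock) was then added and hydrolysis followed at 480 nm every 20 s for 4 min.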
Active calls of the source: *; u = inconclusive; [ ] = dose if it differs, or a comment. Potency is read from the fitted curve at half-maximal effect. Some of the compounds tested; the hit share may differ from the screen's.

structure | AmpC inh no det
O=C(c1ccco1)N1CCC[C@@]2(CCN(Cc3ccccc3)C2)C1 | 26.6%
O=C(C1CC1)N1CCc2cc(Br)cc(S(=O)(=O)N3CCOCC3)c21 | 35.8%
COc1ccc(OCC(O)COc2ccc(OC)cc2)cc1 | 16.6%
CN(C(=O)CCN1C(=O)C(C)(C)Nc2ccccc21)c1ccccc1 | 77.3%
COc1cccc(Nc2ncc3ncc(=O)n(C4CC4)c3n2)c1 | 8.3%
COc1ccc(OC)c(N=c2oc3c(OC)cccc3cc2C(=O)NCc2ccco2)c1 | 28.8%
Cc1nc2cncnc2n(-c2ccccc2)c1=O | 55.5%
CCCN1CCN(CCCNC(=O)Cn2ncc3c4ccccc4n(C)c3c2=O)CC1 | 17.4%
CN1CCN(C(=O)OC2c3nccnc3C(=O)N2c2ccc(Cl)cn2)CC1 (stereo not drawn) | 1.1%
COc1cccc(Cn2c(=O)c(-c3cc(F)cc(F)c3)nc3cnc(N4CCN(C)CC4)nc32)c1 | 28.2%
COc1cc2c(cc1OC)C1=C(C#N)CC/C(=N\S(=O)(=O)c3ccccc3)N1CC2 | 118.6%
Cc1cccc(OCCOC(=O)C2CCN(S(=O)(=O)c3cccs3)CC2)c1 | 15.1%
O=C(CC1(O)C(=O)N(Cc2ccccc2Cl)c2ccccc21)c1ccco1 (stereo not drawn) | 14.4%
CC1CN(c2ccccc2)C(=O)CS1 (stereo not drawn) | 10.0%
COc1ccccc1OC(=O)c1ccc(SC)cc1OC | 43.8%

New compounds follow:
structure | AmpC inh no det
CC(=O)c1cccc(NC(=O)CSc2nnc(-c3ccc(S(=O)(=O)N4CCCC4)cc3)o2)c1 | -0.5%
Cc1cc(Nc2ccc(O)cc2)ccc1N | u
COc1ccccc1C(=O)NCCn1ccc2ccccc21 | 9.7%
O=C1c2ccccc2NC(c2ccccc2)N1c1ccc(O)cc1 (stereo not drawn) | -12.0%
N#Cc1ccc(CN2CC[C@@]3(CCCN(C(=O)c4ccncc4)C3)C2)cc1 | 20.8%
CCOC(=O)C1CCN(C2CC(=O)N(c3ccc(OCC)cc3)C2=O)CC1 (stereo not drawn) | 39.1%
O=C(CSc1nc2ccccc2o1)NCC(=O)c1ccccc1 | 1.5%
OC12Oc3ccccc3C=C1N1CCC2CC1 (stereo not drawn) | -2.1%
O=C(O)C1C2C=CC(C2)C1C(=O)N1CCc2ccccc21 (stereo not drawn) | -3.4%
CCOCCc1nnc(NC(=O)CSc2ccccc2)s1 | -10.4%
CCN1CCCC1CNC(=O)Cn1ncc2c(=O)oc3ccc(C)cc3c21 (stereo not drawn) | 4.1%
Cc1noc(C)c1-c1nc(N2CCOCC2)c2ccccc2n1 | 11.4%
CN(C)c1nc(N)nc(CSc2nnnn2C)n1 | -4.4%
C=CCC1(O)C(=O)Nc2ccccc21 (stereo not drawn) | 0.1%
CC(=O)N1CCc2cc(S(=O)(=O)CCC(=O)N3CCN(c4ccccn4)CC3)ccc21 | 14.6%

Structural class: the compounds so far with a Cl atom (2)
structure | AmpC inh no det
CN1CCN(C(=O)OC2c3nccnc3C(=O)N2c2ccc(Cl)cn2)CC1 (stereo not drawn) | 1.1%
O=C(CC1(O)C(=O)N(Cc2ccccc2Cl)c2ccccc21)c1ccco1 (stereo not drawn) | 14.4%

(listing goes on)
structure | AmpC inh no det
COCCCNc1nc(=S)[nH]c2cc(OC)c(OC)cc12 | -10.5%
CCOc1ccc(NC(=O)Cn2nnc(-c3ccccc3F)n2)cc1 | 12.7%
NC(=O)CCS(=O)(=O)CCN1CCCCC1 | -1.9%
CC1CN(C)C(C)CC1NCc1ccc2c(c1)OCO2 (stereo not drawn) | -10.0%
CCCCCCn1c(N2CCN(c3cccc(Cl)c3)CC2)nc2c1c(=O)[nH]c(=O)n2C | 9.3%
CN(C)S(=O)(=O)c1ccc(C(=O)OCc2ccc(C#N)cc2)cc1 | 1.9%
Cc1nc2cnc(Nc3ccccc3)nc2n(Cc2ccc(F)cc2)c1=O | 1.0%
CC(=O)OCC(=O)c1ccc2ccn(C(C)=O)c2c1 | 5.0%
COc1cccc(C2=NOC(C(=O)NCc3ccc(F)cc3)C2)c1 (stereo not drawn) | 22.9%
CCOc1ccc(-n2c(O)c(C=NCCN(CC)CC)c(=O)[nH]c2=O)cc1 | -1.8%
CC(C)c1ncc(C(O)c2cccc3ccccc23)n1C (stereo not drawn) | -12.8%
O=C(NCc1cccs1)c1nc2ncccn2n1 | 1.0%
O=C1c2ccccc2C(=O)N1CCOCCN1C(=O)c2ccccc2C1=O | 2.8%
CC1CCOC2(O1)C(=O)N(CN1CCN(c3ccccc3F)CC1)c1ccccc12 (stereo not drawn) | 21.9%
CCOC(=O)c1[nH]c(C)c(CN(CCc2ccc(OC)c(OC)c2)C(=O)CCCC(=O)O)c1C | 27.2%

Additional structures
structure | AmpC inh no det
CC1CCCCN1c1nnc(N)s1 (stereo not drawn) | -4.6%
CN1C(=O)CC(N2CCC(c3nc4ccccc4[nH]3)CC2)C1=O (stereo not drawn) | 3.98µM*[single pt active]
C=CCn1c(COc2cccc(C)c2)nnc1SCC(=O)NC(=O)NCc1ccco1 | -8.3%
CC1(C)Cc2cccc(OCC(=O)Nc3cccnc3)c2O1 | 12.5%
O=C(NCc1cccnc1)C1CCN(S(=O)(=O)c2cccs2)CC1 | -3.4%
COC(=O)[C@@H]1[C@@H]2C[C@H]3c4[nH]c5ccccc5c4CCN3C[C@@H]2CC[C@@H]1OS(=O)(=O)O | -1.9%[5.75 µM]
COc1ccc(-c2cc(C(=O)N3CCOCC3)c3cc(C)ccc3n2)cc1 | 86.8%
O=C(Nc1ccccc1N1CCCCC1)c1ncoc1-c1ccc(F)cc1 | -11.9%
COc1ccc2nc(Nc3ccc4c(c3)OCO4)sc2c1 | -9.7%
O=S(=O)(c1ccc(Oc2ncnc3scc(-c4ccccc4)c23)cc1)N1CCOCC1 | 73.4%
O=C(Nc1ccccc1C(=O)OCC(=O)N1CCc2ccccc2C1)c1ccco1 | 30.8%
CC(C)C(=O)N1c2ccccc2NC2=C(C(=O)CCC2)C1c1ccc(N(C)C)cc1 (stereo not drawn) | 34.0%
CCCN(C(=O)c1cccs1)c1nnc(-c2ccncc2)s1 | 38.9%
Cc1ccnc(Nc2nc3ccccc3o2)n1 | -11.1%
COc1ccc(CCn2c(O)c(C=NC3CC3)c(=O)[nH]c2=O)cc1OC | 9.1%

Looked up above:
Under AmpC inh no det, `Cc1noc(C)c1-c1nc(N2CCOCC2)c2ccccc2n1` is listed with 11.4%
Under AmpC inh no det, `CN(C)S(=O)(=O)c1ccc(C(=O)OCc2ccc(C#N)cc2)cc1` is listed with 1.9%

Remaining list, next part.
structure | AmpC inh no det
CC1=CC(C)C2C(=O)N(CCCN(C)C)C(=O)C2C1 (stereo not drawn) | 5.4%
Cc1cccc([N+](=O)[O-])c1C | -3.2%
O=C(O)/C(=C\c1ccncc1)c1cccc2ccccc12 | 0.3%[5.75 µM]
Cc1ccccc1-n1c(SCc2c(C)noc2C)nnc1-c1c[nH]c2ccccc12 | 9.9%
COc1cccc(C(=O)Nc2ccc(S(=O)(=O)Nc3onc(C)c3C)cc2)c1 | 6.0%
CCCC12CN3CC(C)(CN(C1)C3c1ccc(OC)cc1)C2=O (stereo not drawn) | 26.0%
CSCCC(NC(=O)OC(C)(C)C)C(=O)NC(CC(C)C)C(N)=O (stereo not drawn) | 5.0%
Cc1ccc(S(=O)(=O)NCCCCCC(=O)Nc2nccs2)cc1 | -7.3%
CC(C)=CCC/C(C)=C/COc1c2ccoc2cc2oc(=O)ccc12 | 12.6µM*
CN1CC(=O)N(CC(=O)NCCc2ccc(F)cc2)c2ccccc2C1=O | 3.4%
O=C(Nc1ccc(Cc2ccncc2)cc1)C1CC1 | -6.3%
CCN(CC)CCCNC(=O)c1cc(-c2cccc(Cl)c2)on1 | 13.9%
COc1nonc1NC(=O)CSc1nc2ccccc2[nH]1 | -14.7%
CC1=CC(C)(C)N2C(=O)C3(C(C#N)=C(N)OC4=C3C(=O)CC(C)(C)C4)c3cccc1c32 (stereo not drawn) | 60.5%
CC1(C)CC(=O)C2=C(C1)Nc1ccccc1NC2c1ccc2c(c1)OCO2 (stereo not drawn) | 12.3%

Following part.
Molecule | AmpC inh no det
Cc1nc2ncnn2c(C)c1Cc1ccc(Cl)cc1F | -1.7%
CCNc1ncc2ncc(=O)n(CCOC)c2n1 | 11.9%
Cc1ccc(-n2nc3c(c2NC(=O)c2cccs2)CSC3)cc1 | u
CC(C)(Oc1cccc2ccccc12)C(=O)O | 4.7%
CC(C)CCSc1nc(N)c(C#N)cc1C#N | -0.2%
COc1nc(C#N)nc(N(C)C)n1 | -14.3%
C=CCn1c(=O)c(C(=O)Nc2ccccc2OC)c(O)c2ccccc21 | -4.8%
COc1ccccc1C(=O)NCCn1cc(SCC(=O)NCc2ccco2)c2ccccc21 | 23.0%
Cc1cc(C)cc(N(C(=O)C2CCCC2)C2C=CS(=O)(=O)C2)c1 (stereo not drawn) | 29.7%
COc1ccccc1-c1nc(S(=O)(=O)c2ccc(Cl)cc2)c(N(C)C)o1 | 20.9%
O=C(COC(=O)c1ccccc1Oc1ccccc1)NC1CCS(=O)(=O)C1 (stereo not drawn) | 18.1%
CSc1nnc(-c2ccc(O)cc2)n1C | -11.5%

Next results follow:
Molecule | AmpC inh no det
CCOC(=O)Cn1c(=O)oc2cc(S(=O)(=O)N3CCN(c4ccccn4)CC3)ccc21 | 10.1%
Cn1c(SCc2cccc3ccccc23)nnc1-c1ccco1 | 13.6%
CCc1cccc(NC(=O)Cn2cccc2)c1 | 4.6%
COc1ccccc1CNc1cc(-c2ccccc2OC)ncn1 | 51.1%
N#Cc1c(N)n(CCNC(=O)c2cccs2)c2nc3ccccc3nc12 | -16.4%
CC(C)(C)OC(=O)N[C@@H](Cc1c[nH]c2ccccc12)c1nnc(SCC(N)=O)o1 | 34.0%
Cc1ccc(S(=O)(=O)N(C)c2ccc(OCC(=O)OCc3c(C)noc3C)cc2)cc1 | 69.5%
CCOc1nc(-c2ccccc2O)nc2ccccc12 | 7.7%
CCCn1c(SCC(=O)NC)nnc1C(C)C | 0.8%
O=C(CN(C1CCCCC1)S(=O)(=O)c1ccccc1)N1CCCC1 | 19.6%
CCOc1cc2[nH]c(=O)n(CCC(=O)NCCc3ccccc3)c(=O)c2cc1OCC | 26.0%
Cc1cccc(Nc2nc(N)nc(CN3CCN(C)CC3)n2)c1 | -6.2%

The listing continues:
Molecule | AmpC inh no det
Cc1cccc(-n2ncc3c(Nc4ccc(F)cc4)ncnc32)c1 | 3.6%
Fc1ccc(-c2nnc3sc(C4COc5ccccc5O4)nn23)cc1 (stereo not drawn) | 26.5%
Cc1onc(-c2ccccc2Cl)c1C(=O)N1CCN(c2cccc(Cl)c2)CC1 | 8.8%
CC(SCCc1ccccn1)C(=O)O (stereo not drawn) | 6.9%
ON1C(c2ccc(Cl)cc2Cl)N(O)[C@H]2CCCC[C@H]21 (stereo partly drawn) | -2.1%
COc1ccc(F)cc1S(=O)(=O)N1CCN(Cc2ccc3c(c2)OCO3)CC1 | 61.9%
c1ccc(Oc2cccc(NC3=NCCC3)c2)cc1 | 3.6%
COc1ccc2[nH]c(=O)c(CN(C(=O)C3CCCO3)c3ccc(C)cc3)cc2c1 (stereo not drawn) | 32.1%
COc1ccc(S(=O)(=O)N2CCC(C(=O)N3CCN(c4ccccc4OC)CC3)CC2)cc1 | 142.0%
CC(=O)N(C)c1nc(-c2ccc(Cl)cc2)cs1 | 3.8%
CCn1cc(C(=O)NCc2ccccc2OC)c(=O)c2ccc(C)nc21 | 8.9%
COc1ccccc1-c1nccc(NCc2cnc(C)cn2)n1 | 5.5%

Continuation.
Molecule | AmpC inh no det
CCn1cnc2sc(C(=O)O)c(C)c2c1=O | -5.5%
O=C(Nc1ccccc1)N(CCc1nc2ccccc2[nH]1)C1CCCC1 | -15.9%
COc1cc(C)nc(N2CCCC(C(=O)Nc3cccc(Cl)c3Cl)C2)n1 (stereo not drawn) | 13.1%
Cn1cccc1-c1cc(C(=O)O)[nH]n1 | -3.9%
Cc1cc(-c2nc3ncccc3o2)ccc1N | -6.2%
O=[N+]([O-])c1ccc(CSCc2ccc(Cl)cc2)cc1 | -8.8%[5.75 µM]
COC(=O)C(C)Oc1cc(C)cc2oc(=O)c3c(c12)CCCC3 (stereo not drawn) | 51.9%
CCN(CC)S(=O)(=O)c1ccc(Cl)c(C(=O)Nc2nnc(C)s2)c1 | 5.7%
O=C(CN1CCN(c2ccc(F)cc2)CC1)OCc1ccccc1 | 21.4%
COc1ccc2c(c1)cc(C(=O)O)n2C | -10.3%
Cc1cccc(NC(=O)C2CCCN2C(=O)OCC(C)C)c1C (stereo not drawn) | 5.2%
Cc1ccc(/C(O)=C2\C(=O)C(=O)N(CC(C)O)C2c2ccc(N(C)C)cc2)cc1 (stereo not drawn) | 11.7%

Other structures:
Molecule | AmpC inh no det
CC(=O)Nc1cn(C(C)=O)c(C)n1 | -13.2%
CCCc1nc(N)nc2c1C(=O)CC(C)(C)C2 | 15.4%
CCOC(=O)c1c(C)[nH]c(C(=O)CSc2nnc(CC(C)c3ccccc3)o2)c1C (stereo not drawn) | 31.2%
Brc1cccc(-c2nnc3n2CCCCC3)c1 | -13.3%
CC1CCCCN1S(=O)(=O)c1ccc2c(c1)CCN2C(=O)CCC(=O)O (stereo not drawn) | -4.4%
CCC(=O)Nc1ccc(-c2nn3c(C)nnc3s2)cc1C | -6.3%
O=S(=O)(NCC1CCCO1)c1ccc2c(c1)OCCO2 (stereo not drawn) | -3.5%
CCN(CC)C(=O)c1ccc(COc2ccccc2Br)o1 | 56.8%
O=C(Nc1ncnc2sc3c(c12)CCC3)c1ccco1 | 19.8%
CCOc1ccc(-n2c(Cc3cc(=O)[nH]c(=O)[nH]3)nnc2SCC(N)=O)cc1 | 5.3%

Looked up by compound from the list above, 2 records:
Molecule | AmpC inh no det
CCC(=O)Nc1ccc(-c2nn3c(C)nnc3s2)cc1C | -6.3%
CCOc1ccc(-n2c(Cc3cc(=O)[nH]c(=O)[nH]3)nnc2SCC(N)=O)cc1 | 5.3%

Source: PubChem BioAssay (National Center for Advancing Translational Sciences (NCATS))
